# From PubChem BioAssay
# Shh pathway inh: Hedgehog pathway signaling inhibitors, primary screen, luminescence, Shh-LIGHT2 cells, Gli-luciferase; 22,000 tested, 2.1% active; Shh-LIGHT2 Gli-luciferase reporter, 30 h; inhibition, % (concentration not given with the values);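 active means replicate mean of 65% or more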;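 further: pathway switched on by Shh-conditioned medium diluted 1 in 25 in low serum; 100 nL library stock added to about 40 µL; 0% = median of neutral wells and 100% = positive control level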
# MITF inh: inhibitors of MITF, primary screen, MITF inhibitor project, cell-based, luminescence | TRPM1 promoter luciferase, 24 h | inhibition, % (concentration not given with the values) | 37,000 tested, 0.28% active | AID 2240, 2010;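 active means most replicates at 85% or more, or half of them and the mean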;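 further: human melanocyte line stably carrying TRPM1 promoter luciferase reporter; 0% = vehicle wells and 100% = a positive control; the first replicate is given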
# PD-1 reverse act: activators reversing PD-1 mediated T-cell inhibition, primary screen, luminescence, primary human CD4 T cells, PD-L1 beads; CellTiter-Glo 96 h; activation, % (no concentration beside the values); 29,000 tested, under 10 active;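 active means replicate mean of 50% or more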;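 further: 0% = median vehicle wells and 100% = positive control; 100 nL library stock added to about 50 µL; numbers are from one replicate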
# YB-1 expr inh: inhibitors of YB-1 gene expression, primary screen, cell-based, fluorescence. delta delta Cp (YB-1 minus CDIP) (no concentration beside the values). 30,000 tested, 0.37% active. U2OS, qRT-PCR YB-1 vs CDIP delta delta Cp, 16 h; hits give high values; zero = DMSO, each unit about twofold;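 active means delta delta Cp rounded down to an integer at or above 3, about 3 SD of DMSO wells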;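 further: higher means less YB-1 transcript or more CDIP transcript relative to DMSO; stock transfer was 100 nL into about 100 µL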
# The depositor's hits bear a star; . = no result given. This is a subset; count on the stated rates, not on these rows.
SMILES	Shh pathway inh	MITF inh	PD-1 reverse act	YB-1 expr inh
C[C@@H]1CN([C@@H](C)CO)C(=O)c2cc(NS(=O)(=O)c3ccc(F)cc3)ccc2O[C@@H]1CN(C)S(=O)(=O)c1cn(C)cn1	.	-3	0.8	0.25
C[C@@H]1CCCCO[C@@H](CN(C)S(=O)(=O)c2ccccc2)[C@@H](C)CN([C@H](C)CO)C(=O)c2cc(NS(C)(=O)=O)ccc2O1	-12	-11	-4.4	-0.16
C[C@H]1CN([C@@H](C)CO)C(=O)c2cccc(NC(=O)Nc3ccc4c(c3)OCO4)c2O[C@@H]1CN(C)Cc1ccc(Oc2ccccc2)cc1	23	7	3.7	0.14
C[C@@H]1CN([C@@H](C)CO)C(=O)c2cccc(NS(=O)(=O)c3ccc(F)cc3)c2O[C@@H]1CN(C)Cc1ccc(C(=O)O)cc1	13	6	1.8	-0.13
Cc1ccc(S(=O)(=O)c2nc(SCC(=O)c3ccc(Cl)cc3)sc2Cl)cc1	.	47	-3.5	.
C[C@H]1CN([C@@H](C)CO)C(=O)c2cc(NS(=O)(=O)c3cccs3)ccc2O[C@H]1CN(C)S(=O)(=O)c1cn(C)cn1	-3	0	0.6	-0.27
N#C/C(=C\c1ccc(O)c(O)c1)C(=O)Nc1ccccc1	1	-4	-3.9	-0.58
Cc1ccc(S(=O)(=O)N(C)C[C@H]2Oc3ccc(NC(=O)NC(C)C)cc3CC(=O)N([C@@H](C)CO)C[C@@H]2C)cc1	-13	-6	0.1	-0.28
CCN(CC)c1nc2ccccc2c(=O)s1	-4	-65	0.2	-0.35
C[C@@H]1CN([C@@H](C)CO)C(=O)c2cc(NC(=O)c3ccncc3)ccc2O[C@@H]1CN(C)Cc1ccc(Cl)c(Cl)c1	-11	-16	0.4	0.24
Cc1noc(C)c1S(=O)(=O)Nc1ccc2c(c1)C(=O)N([C@H](C)CO)C[C@@H](C)[C@H](CN(C)Cc1ccc(Cl)c(Cl)c1)O2	1	8	-3.7	-0.3
C[C@@H]1CN([C@@H](C)CO)C(=O)c2cc(NC(=O)c3ccncc3)ccc2O[C@H]1CN(C)CC1CCCCC1	.	8	.	0.19
Cc1ccc(S(=O)(=O)Nc2cccc3c2O[C@@H](CN(C)S(=O)(=O)c2ccccc2)[C@@H](C)CN([C@@H](C)CO)C3=O)cc1	-27	-2	1.0	-0.2
CC(=O)Nc1ccc2oc(-c3ccc(C#N)cc3)cc(=O)c2c1	-32	-45	0.4	-0.29
C[C@@H]1CN([C@@H](C)CO)C(=O)c2cccc(NC(=O)CCCCCC(=O)Nc3ccccc3N)c2O[C@@H]1CN(C)C(=O)Nc1ccc(C(F)(F)F)cc1	.	0	-1.0	-0.59
COc1ccc(NC(=O)N(C)C[C@@H]2Oc3c(NC(=O)Nc4ccc5c(c4)OCO5)cccc3C(=O)N([C@H](C)CO)C[C@H]2C)cc1	30	-3	0.3	0.33
CCOC(OCC)P(=O)(O)CCCNCc1ccc(Cl)c(Cl)c1	-30	88*	.	0.096
O=C(c1ccccc1)C1CN(C2CCS(=O)(=O)C2)CCC1(O)c1ccccc1 (centres undefined)	-25	4	-0.8	-0.25
C[C@@H]1CN([C@H](C)CO)C(=O)Cc2cc(NC(=O)CCN3CCOCC3)ccc2O[C@H]1CN(C)C(=O)Nc1ccc(F)cc1	29	-2	.	0.089
C[C@H](CO)N1C[C@H](C)[C@H](CN(C)S(=O)(=O)c2cn(C)cn2)Oc2c(NC(=O)C3CC3)cccc2C1=O	-13	1	0.0	0.18
COC(=O)c1ccccc1NC(=O)CNC(=O)c1ccccc1	.	-7	2.8	.
C[C@@H]1CCCCO[C@H](CN(C)Cc2ccc3c(c2)OCO3)[C@@H](C)CN([C@H](C)CO)C(=O)c2cc(NC(=O)c3ccccc3)ccc2O1	13	-23	.	-0.26
COc1cc(C(=O)Nc2ccc(Oc3ncnc4sc(C)c(C)c34)cc2)cc(OC)c1OC	.	12	-0.7	.
CCOC(=O)c1cnc(S/C=C/C(=O)c2ccc(Cl)cc2)nc1N	-33	-9	-3.2	-0.54
O=C(CC1(O)C(=O)Nc2ccc(Cl)cc21)c1ccccn1 (centres undefined)	.	6	0.7	.
Cc1ccc(S(=O)(=O)N(C)C[C@H]2Oc3ccc(NC(=O)Cn4cnnn4)cc3CC(=O)N([C@@H](C)CO)C[C@@H]2C)cc1	-9	-5	2.4	-0.073
COc1ccccc1COc1ccc2c3c(c(=O)oc2c1C)CCCCC3	.	-57	1.0	0.036
Cc1noc(C)c1S(=O)(=O)Nc1ccc2c(c1)CC(=O)N([C@@H](C)CO)C[C@H](C)[C@@H](CN(C)Cc1ccc(-c3ccccc3)cc1)O2	1	8	-0.7	-0.23
Cc1noc(C)c1S(=O)(=O)Nc1ccc2c(c1)C(=O)N([C@@H](C)CO)C[C@H](C)[C@H](CN(C)S(=O)(=O)c1ccc(Cl)cc1)O2	.	-14	2.0	-0.43
Cc1ccc(S(=O)(=O)N(C)C[C@H]2Oc3c(NC(=O)Nc4c(C)noc4C)cccc3C(=O)N([C@@H](C)CO)C[C@@H]2C)cc1	-33	-5	1.0	-0.43

# Entries of single compounds as entered above:
# Listed for `COc1ccccc1COc1ccc2c3c(c(=O)oc2c1C)CCCCC3` → Shh pathway inh: .; MITF inh: -57; PD-1 reverse act: 1.0; YB-1 expr inh: 0.036
# Listed for `C[C@@H]1CCCCO[C@H](CN(C)Cc2ccc3c(c2)OCO3)[C@@H](C)CN([C@H](C)CO)C(=O)c2cc(NC(=O)c3ccccc3)ccc2O1` → Shh pathway inh: 13; MITF inh: -23; PD-1 reverse act: .; YB-1 expr inh: -0.26

# (next part)
SMILES	Shh pathway inh	MITF inh	PD-1 reverse act	YB-1 expr inh
COc1ccc(S(=O)(=O)Nc2cccc3c2O[C@H](CN(C)Cc2ccncc2)[C@H](C)CN([C@@H](C)CO)C3=O)cc1	-46	-8	0.3	-0.31
Cc1noc(C)c1NC(=O)Nc1cccc2c1O[C@H](CN(C)Cc1ccc(C(F)(F)F)cc1)[C@@H](C)CN([C@@H](C)CO)C2=O	-12	-8	1.1	0.23
C[C@H]1CN([C@@H](C)CO)C(=O)c2cccc(NC(=O)C3CCCCC3)c2O[C@@H]1CN(C)C(=O)NC1CCCCC1	-11	1	0.5	-0.045
C[C@H]1CN([C@@H](C)CO)C(=O)c2cccc(NS(C)(=O)=O)c2O[C@H]1CN(C)S(=O)(=O)c1ccccc1	-22	-1	2.4	0.18
CCOC(=O)c1c(NC(=O)CSc2nc3ccccc3[nH]2)sc2c1CCCC2	.	13	-1.0	.
COc1ccc(S(=O)(=O)N(C)C[C@H]2Oc3ccc(NC(=O)c4ccncc4)cc3CC(=O)N([C@H](C)CO)C[C@H]2C)cc1	-4	27	1.1	-0.085
C[C@H]1CN([C@@H](C)CO)C(=O)c2cc(NC(=O)Cc3ccccc3)ccc2O[C@@H]1CN(C)C(=O)Nc1ccccc1	.	-4	-0.1	0.33
C[C@H]1CN([C@@H](C)CO)C(=O)Cc2cc(NC(=O)Nc3ccc(C(F)(F)F)cc3)ccc2O[C@H]1CN(C)S(=O)(=O)c1cn(C)cn1	-4	6	-0.4	0.23
CCN(CC(=O)Nc1c(C)cc(C)cc1C)S(=O)(=O)c1ccc2ccccc2c1	.	24	2.8	.
CCn1c(SCC(=O)Nc2cccc(SC)c2)nnc1-c1ccc(Br)cc1	.	21	-0.6	.
C[C@@H]1CN([C@@H](C)CO)C(=O)c2cccc(NS(=O)(=O)c3ccc(F)cc3)c2O[C@H]1CN(C)C(=O)Nc1ccc2c(c1)OCO2	-8	0	1.0	0.065
Cc1c(Cl)cccc1NC(=O)CSc1nnc(-c2cccc(Cl)c2)n1C	.	1	0.8	.
C[C@@H]1CN([C@@H](C)CO)C(=O)c2cc(NC(=O)Nc3ccc4c(c3)OCO4)ccc2O[C@H]1CN(C)S(=O)(=O)c1ccc(F)cc1	3	-40	0.5	0.043
CC(=O)c1cccc(-n2c(CCC(=O)O)ccc2-c2ccccc2)c1	.	14	-0.4	.
C[C@H](CO)N1C[C@H](C)[C@H](CN(C)CC2CC2)Oc2ccc(N(C)C)cc2CC1=O	-3	18	.	0.27

# Structures above with an aryl methoxy group, in the order listed:
SMILES	Shh pathway inh	MITF inh	PD-1 reverse act	YB-1 expr inh
COc1ccc(NC(=O)N(C)C[C@@H]2Oc3c(NC(=O)Nc4ccc5c(c4)OCO5)cccc3C(=O)N([C@H](C)CO)C[C@H]2C)cc1	30	-3	0.3	0.33
COc1cc(C(=O)Nc2ccc(Oc3ncnc4sc(C)c(C)c34)cc2)cc(OC)c1OC	.	12	-0.7	.
COc1ccccc1COc1ccc2c3c(c(=O)oc2c1C)CCCCC3	.	-57	1.0	0.036
COc1ccc(S(=O)(=O)Nc2cccc3c2O[C@H](CN(C)Cc2ccncc2)[C@H](C)CN([C@@H](C)CO)C3=O)cc1	-46	-8	0.3	-0.31
COc1ccc(S(=O)(=O)N(C)C[C@H]2Oc3ccc(NC(=O)c4ccncc4)cc3CC(=O)N([C@H](C)CO)C[C@H]2C)cc1	-4	27	1.1	-0.085

# Continuation:
SMILES	Shh pathway inh	MITF inh	PD-1 reverse act	YB-1 expr inh
C[C@H]1CN([C@@H](C)CO)C(=O)c2cc(NS(=O)(=O)c3ccc(F)cc3)ccc2O[C@H]1CN(C)C(=O)Nc1ccccc1	.	-12	0.7	-0.2
COc1ccc(NC(=O)N(C)C[C@@H]2OCCCC[C@@H](C)Oc3ccc(NC(=O)C4CCCCC4)cc3C(=O)N([C@H](C)CO)C[C@@H]2C)cc1	0	7	0.7	0.047
C[C@H](CO)N1C[C@H](C)[C@H](CN(C)Cc2ccc(C(=O)Nc3ccccc3N)cc2)Oc2ccc(NC(=O)CCC(F)(F)F)cc2CC1=O	.	24	-6.7	-0.5
COc1ccc(NC(=O)Nc2ccc3c(c2)C(=O)N([C@H](C)CO)C[C@@H](C)[C@@H](CN(C)Cc2ccccc2)O3)cc1	.	-15	2.0	0.35
C[C@H]1CN([C@@H](C)CO)C(=O)Cc2cc(NC(=O)Nc3cccc4ccccc34)ccc2O[C@H]1CN(C)Cc1ccc(C(F)(F)F)cc1	-41	20	-1.7	0.28
C[C@@H]1CCCCO[C@@H](CN(C)Cc2ccc(C(=O)Nc3ccccc3N)cc2)[C@@H](C)CN([C@H](C)CO)C(=O)c2cc(NC(=O)c3ccncc3)ccc2O1	.	-11	-2.8	-0.32
C[C@H]1CN([C@@H](C)CO)C(=O)c2cccc(NS(=O)(=O)c3ccccc3)c2O[C@@H]1CN(C)S(=O)(=O)c1ccccc1	-6	1	0.7	0.17
O=c1cc(-c2ccc(O)cc2)oc2cc(O[C@@H]3O[C@H](CO)[C@@H](O)[C@H](O)[C@H]3O[C@H]3OC[C@](O)(CO)[C@H]3O)ccc12	-4	-2	1.6	-0.11
C=CCc1ccc(O[C@@H]2O[C@H](CO)[C@@H](O)[C@H](O)[C@H]2O)c(O[C@@H]2O[C@H](CO)[C@@H](O)[C@H](O)[C@H]2O)c1	-5	10	-1.0	-0.37
C[C@@H]1CCCCO[C@@H](CN(C)Cc2ccc(C(=O)Nc3ccccc3N)cc2)[C@@H](C)CN([C@H](C)CO)C(=O)c2cc(NS(=O)(=O)c3ccc(Cl)cc3)ccc2O1	.	16	0.5	0.11
CC(C)NC(=O)Nc1ccc2c(c1)C(=O)N([C@H](C)CO)C[C@H](C)[C@H](CN(C)C(=O)c1ccncc1)OCCCC[C@@H](C)O2	-49	-8	1.9	0.19
Cc1ccc(S(=O)(=O)N(C)C[C@H]2Oc3ccc(NS(=O)(=O)c4ccc(Cl)cc4)cc3C(=O)N([C@@H](C)CO)C[C@H]2C)cc1	39	9	0.7	-0.02
C[C@@H]1CN([C@H](C)CO)C(=O)c2cc(NS(=O)(=O)c3cccs3)ccc2O[C@@H]1CN(C)C(=O)NC1CCCCC1	-12	11	-0.9	-0.1
COc1ccc(CN(C)C[C@@H]2Oc3ccc(NC(=O)Nc4ccc(C(F)(F)F)cc4)cc3CC(=O)N([C@H](C)CO)C[C@H]2C)cc1	-35	3	-1.4	-0.06
C[C@H]1CN([C@@H](C)CO)C(=O)c2cc(NC(=O)Cc3ccccc3)ccc2O[C@@H]1CN(C)S(=O)(=O)c1cn(C)cn1	-20	-2	1.8	0.12
Cc1ccc2nc(Nc3nc(CSc4nc5ccccc5s4)cc(=O)[nH]3)nc(C)c2c1	.	18	-0.5	.
C[C@H]1CN([C@@H](C)CO)C(=O)c2cccc(NC(=O)c3ccncc3)c2O[C@H]1CN(C)C(=O)Nc1ccc(C(F)(F)F)cc1	-15	-6	-1.5	0.15
COc1cc(OC)cc(-c2nnc(SCC(=O)Nc3ccc(Cl)cc3C)n2-c2ccccc2)c1	.	42	-2.3	.
O=C(O)CCc1nn2c3ccccc3n(CCN3CCCCC3)c2nc1=O	.	7	2.4	.
O=C1OC(c2ccccc2)=N/C1=C\c1ccccc1C(F)(F)F	.	7	0.6	-0.023
C[C@H](CO)N1C[C@H](C)[C@@H](CN(C)C)Oc2c(NS(=O)(=O)c3ccc(Cl)cc3)cccc2C1=O	7	-2	.	-0.47
